NPYLR7 ag: agonists of mosquito NPYLR7 receptor, primary screen, cell-based, Aedes aegypti, calcium fluorescence, mosquito biting behavior | Aedes aegypti neuropeptide Y-like receptor 7 (NPYLR7) | HEK293T NPYLR7/Galpha15, GCaMP6s calcium fluorescence | activation, % at 10 µM | hit rate 0.15% among 270,000 | AID 1259423, 2018; in the data active = activation above about 40%;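 also: 0% = vehicle and 100% = reference agonist at the receptor; some compounds past the cut are filed as inactive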
NPYLR7 ag max-min: also measured in NPYLR7 ag; calls as there; activation, %; measured here: Max-Min RFU normalised activation; some inactives read as strong as hits;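 span of the calcium signal over five minutes; 0% = vehicle and 100% = native peptide agonist; compound fluorescence can raise it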
* = called active by the depositor; & = joins results of further samples. This is a subset, so the mix of outcomes need not match the whole.

SMILES	NPYLR7 ag	NPYLR7 ag max-min
COc1ccc(S(=O)(=O)N(C(C)=O)c2ccc3oc4c(c3c2)CCCC4)cc1[N+](=O)[O-]	-3.3	-4.2
O=C(Cc1ccccc1)NC1CCN(c2ccccc2C(=O)NCC2CCCO2)CC1 (stereo not given)	18.3	20.2
Cc1cc(C)nc(N2C(=O)c3c(Cl)c(Cl)c(Cl)c(Cl)c3C2=O)n1	-5.1	-13.6
COc1ccc(C(=O)N2C[C@@H](O)[C@H](NCc3ncccc3C)C2)cc1	0.8	-0.2
CCC1CN(C(=O)c2cc(C(C)C)on2)CCC(=O)N1Cc1ccccc1 (stereo not given)	62.4*	57.3*
Cn1c(C2CCCN(S(C)(=O)=O)C2)nn(CC(=O)c2ccccc2)c1=O (stereo not given)	-6.6	0.5
Cc1nn(-c2c(Cl)cc(Cl)cc2Cl)c(C)c1C(=O)NCCC(=O)OC(C)(C)C	8.7	4.3
O=C(Cn1cnc2c(cnn2C2CCS(=O)(=O)C2)c1=O)N1CCc2ccccc21 (stereo not given)	8.5	0.1
Cc1nn2c(NCCCN(C)C)c3c(nc2c1-c1ccccc1)CCCC3	5.1	7.0
COc1cc(CCNC(=O)CCc2ccccn2)ccc1C	4.3	3.4
CC1C2=C(CC(C)(C)CC2=O)N=C(SCC(=O)c2ccc(Cl)cc2)C1C#N (stereo not given)	4.5	5.1
Cc1cc(C(=O)OCC(=O)N2CCCC2c2ccc(C(C)(C)C)cc2)n[nH]1 (stereo not given)	12.3	7.8
O=c1nc(N(c2ccccc2)c2ccccc2)[nH]c(=O)[nH]1	1.6	0.3
CC(C)CCNC(=O)C(C)N1CCn2c(CCc3ccccc3)nnc2C1 (stereo not given)	6.0	4.6
CCc1ccc(CN(C)Cn2nc(C)c3ccccc3c2=O)cc1	-4.2	-5.7
Cc1ccc(NC(=O)C(C)(C)C)cc1NC(=O)CCc1cnn(C)c1	0.9	-7.6
COc1cccc(CNC(=O)C2(C)CCCCN2C)c1 (stereo not given)	6.4	1.8
Cc1cccc(NC(=O)c2c(-c3ccccc3Cl)noc2C)c1NC(=O)c1ccccc1	-10.3	-12.8
Cc1cnc(C)c(N2CCC(Cc3ccccc3Cl)(C(=O)O)CC2)n1	5.8	4.3
CCOC(=O)C=C(C)Nn1c(C)cc(C)c(C#N)c1=O	0.4	-2.7
O=C(c1ccccc1)N1CCC2(CC1)NC(=O)N(Cc1ccc(F)cc1)C2=O	4.9	3.3
COc1cccc(-c2nc(OC)nn2-c2cccc(NC(=O)Nc3ccccc3C)c2)c1	20.4	20.3
Cc1nc(C)c(NC(=O)OC(C)(C)C)s1	-0.5	-3.8
O=c1cc(O)c2sc3nc(C4CC4)cc(C(F)(F)F)c3c2[nH]1	3.6	1.4
O=C(c1ccc(CSc2nc(-c3ccccc3)cc(N3CCN(c4cccc(C(F)(F)F)c4)CC3)n2)cc1)N1CCCC1	-7.8	1.0
Cc1ccc(C=CC(=O)OC(C)C(N)=O)o1 (stereo not given)	4.4	12.4
C=C(C)Cn1c(N=Nc2c(O)[nH]c3ccccc23)nc2c1c(=O)n(C)c(=O)n2C	15.8	3.6
O=C(Nc1ccc(F)c(Cl)c1)Nc1ccc(F)cc1F	-3.9	-10.0
COc1ccc(Nc2nc(N3CCOCC3)nc3[nH]ncc23)cc1	1.5	-1.2
CCCCOC(=O)N1CC(=O)N(Cc2ccccc2OC)CC(O)C1 (stereo not given)	3.8	5.8
Cn1c(C2CCCN(S(C)(=O)=O)C2)nn(CC(=O)Nc2ccccc2)c1=O (stereo not given)	-5.5	1.1
COc1cc(CN(CC(C)O)C2CC2)cc(OC)c1 (stereo not given)	20.2	10.8
O=C(c1ccccc1N1CCOCC1)N1CCc2c([nH]c3ccccc23)C1c1ccccn1 (stereo not given)	5.4	-7.2
O=C(c1ccc(Cl)c([N+](=O)[O-])c1)N(CC(=O)N1CCc2sccc2C1c1ccc(Cl)cc1Cl)CC1CCCO1 (stereo not given)	9.2	9.9
Cc1cc(C(=O)N(C)Cc2ccccc2OCC(C)C)c(=O)[nH]c1C	6.4	3.1
Cc1ccc2nc(SCC(=O)Nc3cccc(C(F)(F)F)c3)[nH]c2c1	9.3	1.3
Cc1ccsc1-c1nccn1CCn1cccn1	-0.4	-5.9
Cc1ccc2nc(CSc3nnc4nc(C)cc(C)n34)cn2c1	0.2	1.4
C=Cc1ccc(C(=O)N2CC[C@H](O)[C@@H](O)C2)cc1	-8.2	-11.5
Cc1ccc(F)c(NS(=O)(=O)c2ccc(C)c(C(=O)O)c2)c1	0.0	0.6
CCn1nc(C)cc1C(=O)Nc1ccc2nc(N3CCN(C)CC3)sc2c1	-3.6	-5.9
Oc1ccccc1CN1CCC(c2[nH]ncc2-c2cccc(C(F)(F)F)c2)CC1	-1.2	-5.4
O=C(COc1ccc(Cl)cc1Cl)Nc1nccs1	15.1	10.9
CCc1ccc(CN2CCC(CNC(=O)c3cnc(C)cn3)C2)nc1 (stereo not given)	0.9	-4.3
CC(C)[C@H](NS(=O)(=O)c1ccc2c(c1)OCCO2)C(=O)N1CCc2sccc2C1	-2.5	0.6
N#CC(C=Nc1ccc2c(c1)OCO2)c1nc(-c2ccco2)cs1 (stereo not given)	11.3	8.1
CC1SC(c2ccc(C(C)(C)C)cc2)N(CCN2CCN(C(=O)C3CC3)CC2)C1=O (stereo not given)	13.0	14.3
Cc1ccccc1CNc1ccnc(C(=O)NCCN2CCOCC2)c1	1.8	0.2
Cn1ccnc1CN1CC[C@@](C)(O)[C@@H](Cc2ccccc2)C1	11.8	10.9
CC1CN(c2cc(Cl)nc(SCC(=O)N3CCN(c4cccc(Cl)c4)CC3)n2)CCN1C(=O)C1CCCCC1 (stereo not given)	-1.3	6.1
Further entries
SMILES	NPYLR7 ag	NPYLR7 ag max-min
CC(=O)N(CCN1CCCCC1)CC1CCCN(C2CCCC2)C1 (stereo not given)	7.3	5.5
Cc1nc(-c2ccccc2)sc1C(=O)NCCOc1ccc(-c2ccco2)nn1	-4.7	-4.7
CCC(=O)Nc1ccc(SCC(=O)c2ccc(C)cc2C)nn1	6.1	-4.7
CCCCN(C=O)c1c(CC)nc2ccc(C(=O)NCCCN(C)C)cn12	11.1	-2.3
O=C(O)c1cc(-n2cc(CCO)cn2)ccc1F	7.5	4.7
COc1ccc(-n2nc(C(=O)N3CCOCC3)c(=O)n(Cc3cccc(F)c3)c2=O)cc1	5.9	12.1
O=C(CCN1C(=O)SC(=Cc2cccs2)C1=O)NCc1ccco1	19.5	9.5
Cc1ccc(CNC(=O)C2CCC(=O)N(CCc3ccccn3)C2)s1 (stereo not given)	-4.5	-3.0
Cc1cn(C)nc1C(=O)N(CCN1CCOCC1)c1nc2c(Cl)cccc2s1	2.6	8.2
CC(=O)NCCNc1nc2cc(-c3ccc(C)cc3)sc2c(=O)n1C	6.6	3.6
CCCCNC(=O)c1c(N)n(/N=C\c2cccc(OC)c2OC)c2nc3ccccc3nc12	5.9	-5.1
Cc1ccc(C)c(-n2cc(CN3CCC(C(=O)N4CCCC4)CC3)c(-c3ccccc3)n2)c1	-0.4	-2.6
CCc1cc(CNC(=O)CC2C(=O)NCCN2C/C=C/c2ccccc2OC)on1 (stereo not given)	0.1	-2.0
C/C(N)=C(/C#N)C(=O)COc1ccc([N+](=O)[O-])cc1	6.9	6.4
N#CC1C(=N)Oc2cc(O)ccc2C1c1ccc(Cl)cc1 (stereo not given)	18.4	17.7
C=CCNS(=O)(=O)c1ccc(Cl)c(Cl)c1	-1.8	-3.4
O=C(NCC1(Cn2cccn2)CC1)c1ncc[nH]1	-4.4	-9.2
C#CCN(Cc1ccco1)Cc1nc(-c2ccc(C(F)(F)F)cc2)oc1C	8.8	-1.1
Clc1cncc(N2CCC(c3nc(C4CC4)n[nH]3)CC2)n1	2.4	0.9
N#CCCN1CCN(C2=NC(=O)C(=Cc3ccccc3OS(=O)(=O)c3ccccc3)S2)CC1	0.1	-4.0

14 of the compounds above, with values under each structure.
Values run as follows: NPYLR7 ag	NPYLR7 ag max-min
> O=C(CCN1C(=O)SC(=Cc2cccs2)C1=O)NCc1ccco1
 : 19.5	9.5
> Cc1ccc(CNC(=O)C2CCC(=O)N(CCc3ccccn3)C2)s1 (stereo not given)
 : -4.5	-3.0
> Cc1cn(C)nc1C(=O)N(CCN1CCOCC1)c1nc2c(Cl)cccc2s1
 : 2.6	8.2
> CC(=O)NCCNc1nc2cc(-c3ccc(C)cc3)sc2c(=O)n1C
 : 6.6	3.6
> CCCCNC(=O)c1c(N)n(/N=C\c2cccc(OC)c2OC)c2nc3ccccc3nc12
 : 5.9	-5.1
> Cc1ccc(C)c(-n2cc(CN3CCC(C(=O)N4CCCC4)CC3)c(-c3ccccc3)n2)c1
 : -0.4	-2.6
> CCc1cc(CNC(=O)CC2C(=O)NCCN2C/C=C/c2ccccc2OC)on1 (stereo not given)
 : 0.1	-2.0
> C/C(N)=C(/C#N)C(=O)COc1ccc([N+](=O)[O-])cc1
 : 6.9	6.4
> N#CC1C(=N)Oc2cc(O)ccc2C1c1ccc(Cl)cc1 (stereo not given)
 : 18.4	17.7
> C=CCNS(=O)(=O)c1ccc(Cl)c(Cl)c1
 : -1.8	-3.4
> O=C(NCC1(Cn2cccn2)CC1)c1ncc[nH]1
 : -4.4	-9.2
> C#CCN(Cc1ccco1)Cc1nc(-c2ccc(C(F)(F)F)cc2)oc1C
 : 8.8	-1.1
> Clc1cncc(N2CCC(c3nc(C4CC4)n[nH]3)CC2)n1
 : 2.4	0.9
> N#CCCN1CCN(C2=NC(=O)C(=Cc3ccccc3OS(=O)(=O)c3ccccc3)S2)CC1
 : 0.1	-4.0

Next entries:
SMILES	NPYLR7 ag	NPYLR7 ag max-min
O=C(CCC(=O)N1CCc2ccccc2C1)NCCc1ccc(O)cc1	-2.8	-4.4
COc1ccc(-n2[nH]c(C(C)C)c(C3=C(N4CCN(C)CC4)C(=O)N(C4CCCCC4)C3=O)c2=O)cc1	-4.5&5.5	0.1&12.0
COc1ccc(N(CC(=O)NCc2ccc(Cl)cc2Cl)S(=O)(=O)c2ccccc2[N+](=O)[O-])c(OC)c1	12.7	8.3
Cc1cc(C)c(S(=O)(=O)NC2CCN3CCCC23)c(C)c1 (stereo not given)	2.3	-0.5
O=C(c1cc(-c2ccccc2)nc2ccccc12)N1CCCN(c2ccc(C(F)(F)F)cn2)CC1	-0.1	-0.3
CCCc1nc(CN(CC)C(=O)C2CC(=O)c3ccccc32)no1 (stereo not given)	0.3	-2.6
CN(C)CC(C)(C)CN1CC(COc2ccccc2)Oc2ncccc2S1(=O)=O (stereo not given)	-0.2	7.9
Cc1cc(C)cc(OCC(=O)NCCn2cccc2)c1	3.3	2.4
CC1=NN(c2ccc([N+](=O)[O-])cc2)C(c2ccco2)C1 (stereo not given)	-0.6	-5.8
CC(C)c1cnc(S(=O)(=O)C(C)C(=O)N(C)C(C)C)n1C1CC1 (stereo not given)	0.9	0.4
Cc1ccc(C)c2c1NC(=O)/C2=N\N1CCN(C)CC1	8.6	8.4
CCOC(=O)c1nn(-c2ccc(C)cc2)c(=O)cc1OS(=O)(=O)N(C)C	-1.2	5.7
Cc1nnc(C(C)Nc2ccc(N3CC(C)OC(C)C3)c(F)c2)o1 (stereo not given)	6.9	2.5
CCOc1ccc2nc(N3CCCC(C(=O)N4CCCN(C(=O)c5ccco5)CC4)C3)nc(C)c2c1 (stereo not given)	10.3	3.4
COc1ccc(C(=O)NCCCNC(=O)[C@H]2CCCN2C(=O)C2CC2)cc1	30.5	33.9
CC(C)c1cc(Oc2ccc(F)cc2F)nc(SCc2ccccc2Cl)n1	19.4	24.7
CC(C)=CC(=O)OC(C)C(=O)Nc1ccc2c(c1)OCO2 (stereo not given)	1.9	-3.3
O=C(OC(c1cccnc1)C(F)(F)F)c1ccc2c(c1)OCO2 (stereo not given)	-0.2	5.8
CC(C)N=c1c([N+](=O)[O-])nn(-c2ccc(Cl)cc2)n1O	95.3*	96.7*
Cc1oc(-c2cccc(Cl)c2)nc1CN1CCN(CC2CCCO2)CC1 (stereo not given)	7.9	4.7
NC1CCN(CCCc2ccccc2)C1=O (stereo not given)	-3.1	-3.6
CC(C)N(Cc1nccn1C)C(=O)c1cccc(-c2cn[nH]c2)c1	4.2	1.9
CCc1cccc(NC(=O)Cn2nc(-c3cccs3)c3sc(N4CCCC4)nc3c2=O)c1	-0.7	-6.4
CCOc1ccc(-c2ccc(=O)n(CCNC(=O)c3sc(-c4ccccc4)nc3C)n2)cc1	-0.1	-2.2
OCC1(CCc2ccccc2)CCCN(c2ncccn2)C1 (stereo not given)	9.3	5.4
CCc1ccc(CN2C[C@@H](C(=O)O)C[C@H](C(=O)Nc3ccc(C)nc3)C2)o1	2.4	0.6
Cc1cc(C(=O)N(CCCN(C)C)c2nc3c(F)cccc3s2)no1	-2.8	-3.2
Fc1ccc(OCc2n[nH]c(=S)o2)cc1	-1.7	105.1
Cc1c(C(=O)N2CCCCCC2)c(C(F)(F)F)nn1C1CCCN(C)C1 (stereo not given)	5.6	-1.3
CC(=O)c1ccc(S(=O)(=O)Nc2c(C)cccc2C(=O)O)cc1	10.1	4.8
COc1ccc(C(C)NC(=O)Nc2cc(Cl)ccc2N2CCOCC2)cc1F (stereo not given)	15.9	4.8
CCS(=O)(=O)Oc1ccccc1CN(CCOC)C(=O)c1ccccc1F	15.4	23.8
COc1ccc(CC(=O)NCc2nnc3nc(C)cc(C)n23)c(OC)c1	7.3	5.5
Cc1ccc(-n2nc(C)c3c(=O)c(C(=O)N4c5ccccc5CC4C)c[nH]c32)cc1 (stereo not given)	-2.3	14.4
CCn1cc(NC(=O)Nc2cccc(OC)c2)c2ccccc21	8.0	-0.4

Screens as filed in PubChem BioAssay.
